Bioassay records (PubChem BioAssay)
Rango dissoc inh = inhibitors of RanGTP-induced Rango-importin beta complex dissociation; O95149+P62826; Biochemical FRET Rango-importin beta, RanGTP-induced dissociation; Potency, µM (top dose mostly 46.1 µM), for inactives: at the top dose activity change, negative = inhibition; 340,000 compounds, 0.071% hits; AID 540253; active means falling FRET ratio curve, often poorly fitted, with flat reads before Ran was added; inconclusive means other falling curves, or compound fluorescence or quenching; inactive means flat or rising ratio curve;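 further: potency means the concentration at half of the fitted maximal effect; % of control where 0% means no effect; nearly all actives have a fitted effect of over 45% in size; -100% = wells without RanGTP and RCC1; the record marks most hits as doubtful in a second field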
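Rango (0.1 uM)–importin beta (0.25 uM) complex; RanGTP-RCC1 trigger; 45 min RT; CFP/YFP FRET read.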
Rango complex inh = Rango-importin beta binding inhibition. Rango CFP/YFP FRET sensor + importin beta, 45 min. Q14974. Potency, µM (titrated, usually from 92.2 µM), for the others: at the top dose inhibition of complex formation. 340,000 compounds, 0.031% hits. AID 540263; active = rising FRET ratio curve, often small or poorly fitted; inconclusive = mostly compound fluorescence or quenching in the first reads; inactive = flat curves in all reads;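 further: potency means the concentration at half of the fitted maximal effect; 0% = DMSO wells and 100% = buffer wells lacking importin beta; nearly all actives have a fitted effect of over 15% in size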
Target sequence (Q14974 whole entry, looked up): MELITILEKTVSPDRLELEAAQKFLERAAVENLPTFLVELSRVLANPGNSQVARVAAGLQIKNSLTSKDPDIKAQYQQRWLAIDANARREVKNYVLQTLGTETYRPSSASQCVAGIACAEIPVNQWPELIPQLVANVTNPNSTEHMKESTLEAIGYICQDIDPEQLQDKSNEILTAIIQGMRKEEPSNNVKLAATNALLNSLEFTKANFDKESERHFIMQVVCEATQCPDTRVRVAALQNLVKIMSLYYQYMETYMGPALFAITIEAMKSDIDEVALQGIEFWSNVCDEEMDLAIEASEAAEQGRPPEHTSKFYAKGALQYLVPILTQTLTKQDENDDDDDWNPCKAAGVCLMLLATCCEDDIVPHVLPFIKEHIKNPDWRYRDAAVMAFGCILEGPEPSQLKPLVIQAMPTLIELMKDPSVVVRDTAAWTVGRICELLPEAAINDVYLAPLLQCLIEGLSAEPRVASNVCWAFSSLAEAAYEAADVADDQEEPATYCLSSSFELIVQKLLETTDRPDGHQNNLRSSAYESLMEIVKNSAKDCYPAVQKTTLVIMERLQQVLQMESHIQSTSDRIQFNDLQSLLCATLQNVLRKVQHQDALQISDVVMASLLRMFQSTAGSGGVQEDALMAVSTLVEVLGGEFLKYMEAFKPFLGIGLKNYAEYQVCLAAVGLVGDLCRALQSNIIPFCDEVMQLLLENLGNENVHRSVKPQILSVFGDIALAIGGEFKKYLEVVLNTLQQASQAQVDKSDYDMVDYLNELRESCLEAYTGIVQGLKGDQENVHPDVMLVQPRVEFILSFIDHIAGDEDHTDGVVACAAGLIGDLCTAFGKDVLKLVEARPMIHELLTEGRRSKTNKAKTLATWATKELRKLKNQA
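FRET biosensor Rango (snurportin 1 IBB between N-terminal EYFP and C-terminal Cerulean), 50 nM in PBS/1 mM DTT/0.02% Tween-20/0.1% BSA, preincubated 5 min RT with compound; 0.125 microM importin beta added, 45 min RT, CFP/YFP FRET ratio read.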
GLA inh pH 4.5 = blocks human alpha-galactosidase A at pH 4.5; P06280; purified enzyme, 4-MU-alpha-Gal fluorescence, pH 4.5; activity change, negative = inhibition, % at 105 µM; 230,000 tested, under 10 active; inconclusive = small, poorly fitted or top-dose-only inhibition, or a rising curve; inactive = flat fitted curve, though single readings scatter; no compound was filed as active;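 further: 0% = full activity with enzyme and -100% = basal without enzyme; dose as in the result columns while the protocol names 77 µM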
miR-21 reporter = miR-21 reporter, rising signal; HeLa miR-21 FLuc reporter, luciferase, 48 h; Potency, µM (doses to about 38.3 µM), inactives show top-dose reporter change, positive = more light; 340,000 tested, under 10 active; active = well fitted rising curve with a large enough effect; inconclusive = small, poorly fitted or top-dose-only effect; inactive = no such curve, though single readings can be large or run the other way;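 further: % of control where 0% means no effect; miR-21 action dims this reporter so a rising signal means less miR-21 action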
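Using DMEM plus 10% FBS, HeLa miR-21-FLuc cells are incubated with test compounds (final up to about 40uM) for 48 hours; firefly luciferase signal is then imaged following reagent-mediated lysis.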
The depositor's hits bear a star; ? = inconclusive; · = not tested or not shown; & = joins results of further samples.

Rango dissoc inh | Rango complex inh | GLA inh pH 4.5 | miR-21 reporter | mol
0% | 0.1% | 8 | 0% | Cc1nc2ccc(NC(=O)c3ccc(N4C(=O)CCC4=O)cc3)cc2s1
12% | 2.7% | -5 | -8% | CCOc1cc(C2C(C(=O)O)c3cc(OCC)c(OCC)cc3C(=O)N2C)ccc1O (stereo unspecified)
1% | 0.8% | -3 | 0% | O=C(CCC1CCCN(C(=O)Cn2cnnn2)C1)NCc1ccc(F)c(F)c1 (stereo unspecified)
5% | 1.6% | 0 | -2% | O=C(O)c1cc(S(=O)(=O)N2CCOCC2)ccc1N1CCOCC1
-7% | 0.1% | 12 | -3% | Clc1ccc(CN2CCN(c3ccccc3)CC2)cn1
-1% | 2.5% | · | · | COc1ccc(S(=O)(=O)N2CCOCC2)cc1NC(=O)COc1ccccc1
? | ? | · | ? | O=c1c2ccccc2nc(/C=C/c2cc(Br)ccc2O)n1CCCO
-14% | -2.7% | -1 | -1% | CCCCN(C(=O)NC(=O)Nc1c(C)cc(C)cc1C)S(C)(=O)=O
-4% | 0.9% | -4 | -1% | Cc1cc(-c2nnnn2-c2ccc(F)cc2)no1
-5% | 2.0% | · | · | COc1ccccc1NC(=O)C(=O)NCC(c1ccco1)N1CCc2ccccc2C1 (stereo unspecified)
9% | ? | -11 | -2% | Cc1ccc2sc(N(CCCN(C)C)C(=O)c3ccc(Br)s3)nc2c1C
21% | -0.8% | · | · | O=[N+]([O-])c1cccc(S(=O)(=O)Nc2ccc(S(=O)(=O)Nc3nccs3)cc2)c1
-9% | 0.4% | 7 | -2% | CC(=O)NC(CCS(C)(=O)=O)C(=O)Nc1ccc(Cl)c(Cl)c1 (stereo unspecified)
-5% | -3.2% | -14 | -11% | CC(C)Oc1ccc(C(=O)Nc2ccc(N3CCCCC3)cc2)cc1
2% | -3.0% | -6 | -2% | COC(=O)c1ccc(-c2nc(O)c3cnccn23)cc1
-5% | 0.5% | 2 | -12% | CCCS(=O)(=O)C/C(N)=N/OC(=O)c1ccc(Cl)cc1
-19% | -1.1% | -9 | 12% | O=[N+]([O-])c1ccc(O)c(/C=N/Nc2ccc(Cl)nn2)c1
8% | -5.8% | · | · | Cc1c2ccccc2c(C)c2c1ccc1ccccc12
18% | 3.7% | -1 | -2% | O=C(COC(=O)/C=C/c1ccc(Cl)cc1)Nc1ccccc1
8% | 2.2% | -2 | -5% | CCc1ccccc1NC(=O)CC1S/C(=N\c2nccs2)N(CC)C1=O (stereo unspecified)
-14% | 1.0% | 4 | -15% | Cc1ccc(/C=N/n2nnnc2N)cc1[N+](=O)[O-]
-4% | 2.0% | 5 | -4% | O=C(CN(Cc1ccc(F)cc1)C(=O)CCC(=O)Nc1ccccn1)NCc1ccco1
-1% | -3.5% | · | · | CC(=O)Nc1ccc(S(=O)(=O)NCC(=O)N2CCN(S(=O)(=O)c3cccs3)CC2)cc1
-1% | ? | -3 | -47% | CCCCN1C(=O)/C(=C/C=C2/CC(C)(C)CN2C)SC1=S
-11% | -0.4% | -28 | 7% | COc1ccc(C(=O)C2CCCN(Cc3ccc(C#CCCO)cc3)C2)c(OC)c1 (stereo unspecified)
-3% | -3.5% | 7 | 1% | CC(O)CNc1nc2ccccc2n1CC(=O)NCC(F)(F)F (stereo unspecified)
-17% | 0.2% | 1 | -15% | CC(NC(=O)c1noc2c1CCCC2)c1ccccc1 (stereo unspecified)
-11% | -1.8% | · | 9% | COc1ccc(NC(=O)CN(CC(=O)Nc2ccc(OC)cc2)C(C)(C)CO)cc1
1% | -3.5% | 5 | 0% | CNC(=O)c1c(NC(=O)c2cc(-c3cc(C)c(C)cc3O)n[nH]2)sc2c1CCCC2
3% | -3.8% | 4 | -41% | CC(C)C(=O)Nc1cccc(NC(=O)c2cc3ccccc3o2)c1

The closing four compounds of the section above open the next one.
Rango dissoc inh | Rango complex inh | GLA inh pH 4.5 | miR-21 reporter | mol
-17% | 0.2% | 1 | -15% | CC(NC(=O)c1noc2c1CCCC2)c1ccccc1 (stereo unspecified)
-11% | -1.8% | · | 9% | COc1ccc(NC(=O)CN(CC(=O)Nc2ccc(OC)cc2)C(C)(C)CO)cc1
1% | -3.5% | 5 | 0% | CNC(=O)c1c(NC(=O)c2cc(-c3cc(C)c(C)cc3O)n[nH]2)sc2c1CCCC2
3% | -3.8% | 4 | -41% | CC(C)C(=O)Nc1cccc(NC(=O)c2cc3ccccc3o2)c1
-13% | -7.3% | -10 | -39% | CC(=O)Nc1ccccc1OCC(=O)c1ccc2c(c1)OCO2
-10% | -0.5% | 2 | 0% | COc1ccc(C2CC2C(C)=O)cc1 (stereo unspecified)
2% | 0.6% | · | · | COc1c(C=O)c2c(c(OC)c1OC)-c1ccc(OC)c(=O)cc1C(NC(C)=O)CC2 (stereo unspecified)
1% | 8.1% | -4 | -3% | NC(=O)CC(NC(=O)c1ccccc1)c1ccc(NCC2CC2)c([N+](=O)[O-])c1 (stereo unspecified)
12% | 1.3% | -2 | -21% | Cc1cc(C)c2c(NC(=S)Nc3ccccc3)n[nH]c2n1
-23% | -1.9% | 1 | -29% | S=c1[nH]nc(-c2ccc(Cl)cc2Cl)n1-c1ccc2c(c1)OCCO2
9% | 1.1% | 2 | 1% | COCC(=O)N1CCC(Oc2ccc(C(=O)NCCc3ccncc3)cc2)CC1
-10% | 4.8% | · | 1% | CCOc1cc(C)c(S(=O)(=O)NCc2ccccn2)cc1C
-5% | 5.6% | · | 0% | CCn1c(=O)c2c(nc(SCC(=O)NC3CCCC3)n2C)n(C)c1=O
0% | -0.4% | 3 | -25% | COc1cccc(NC(=O)CC2COc3ccccc3O2)c1 (stereo unspecified)
-11% | 1.1% | · | · | COc1ccc(Cl)cc1NC(=O)CN(C)C(=O)c1ccc(N2CCCCCC2)c([N+](=O)[O-])c1
9% | 1.4% | 3 | 5% | C=CCN1CCc2nc(N)sc2CC1
· | · | 5 | -27% | CCOC(=O)/C(C#N)=C1\SS/C(=C(/C#N)C(=O)OCC)S1
-1% | ? | -1 | 3% | Cn1c(C(=O)NCCc2ccsc2)cc2c(=O)n(C)c3ccccc3c21
-20% | -0.1% | · | · | COC(=O)c1ccc(Cn2ccc(=O)[nH]c2=O)cc1
-1% | -2.0% | -2 | 5% | O=C1C2CCCCN2C(=O)N1CCCCN1CCN(c2ccc([N+](=O)[O-])cc2)CC1 (stereo unspecified)
-15% | -5.5% | · | -62% | Cc1cccc(C(=O)NC2CCCCCCC2)c1
-12% | 0.2% | -1 | -1% | O=S(=O)(c1ccc(F)cc1)N1CCN(c2ccccn2)CC1
-6% | -1.1% | · | -3% | COCCN(CCOC)S(=O)(=O)c1ccc(C(=O)Nc2ccncc2)cc1
-9% | 0.7% | · | 0% | Cc1ccc(-c2csc3ncn(C(C)C(=O)O)c(=O)c23)cc1 (stereo unspecified)
1% | -3.9% | · | · | NC1=NC[C@@H](CC2CCCCC2)N1CCc1cc(C(F)(F)F)cc(C(F)(F)F)c1
-21% | -0.5% | 5 | -1% | Cn1nc(C(=O)Oc2cc(=O)n(C)c3ccccc23)c2ccccc2c1=O
0% | 3.2% | 5 | -4% | CCCCc1nc(NCCN)c(C#N)c2c1CSC(C)(C)C2
1% | -1.9% | -14 | -42% | C/C(=N\NC(=S)Nc1ccccc1)C1Cc2ccccc2C(=O)O1 (stereo unspecified)
9% | 0.8% | · | · | O=C(COC(=O)c1ccc(Br)o1)Nc1ccc(Br)cc1
-4% | -0.7% | · | · | CCCCNC(=O)C(=O)NCC1CCCN1S(=O)(=O)c1cccs1 (stereo unspecified)
5% | -3.3% | -4 | -45% | CC(C)c1ccc(NC(=O)c2cccnc2)cc1
-18% | -2.5% | -3 | 17% | CCOc1ccc(-c2cc(N3C(=O)Nc4ccccc4N3O)n[nH]2)cc1
12% | 3.6% | -4 | -13% | CCOC(=O)c1ccc(NC(=S)N(CCCN(CC)CC)Cc2ccco2)cc1
-18% | 4.8% | -2 | -5% | O=C(NNS(=O)(=O)c1ccccc1F)c1cccc(S(=O)(=O)N2CCOCC2)c1

Arranged by the number under Rango complex inh (descending): some entries from above
Rango dissoc inh | Rango complex inh | GLA inh pH 4.5 | miR-21 reporter | mol
12% | 3.6% | -4 | -13% | CCOC(=O)c1ccc(NC(=S)N(CCCN(CC)CC)Cc2ccco2)cc1
1% | -1.9% | -14 | -42% | C/C(=N\NC(=S)Nc1ccccc1)C1Cc2ccccc2C(=O)O1 (stereo unspecified)
1% | -3.9% | · | · | NC1=NC[C@@H](CC2CCCCC2)N1CCc1cc(C(F)(F)F)cc(C(F)(F)F)c1

(further entries)
Rango dissoc inh | Rango complex inh | GLA inh pH 4.5 | miR-21 reporter | mol
5% | -0.9% | -18 | -8% | S=C(Nc1ccccc1)Nc1nc2ccccc2n1CCOc1ccc(Cl)cc1
1% | 0.2% | · | · | Cn1cnc([N+](=O)[O-])c1Sc1nc(N)nc2c1ncn2C1OC(CO)C(O)C1O (stereo unspecified)
0% | ? | · | · | CCC1CCc2c(sc(N)c2C(N)=O)C1 (stereo unspecified)
0% | -1.0% | 4 | -3% | COc1ccc(OCCSc2nc3ccccc3n2CC(=O)O)cc1
-6% | ? | 6 | -9%&-3% | Cn1ncc2c(N3CCN(c4ccccc4F)CC3)ncnc21
8% | 2.1% | · | · | Nc1c(C(=O)CSc2nccn2-c2cccc(F)c2)c(=O)[nH]c(=O)n1C1CC1
3% | -4.0% | -5 | -4% | N#Cc1cccc(NC(=O)C2SC(=Nc3ccccc3)C(C(=O)N3CCOCC3)=C2N)c1 (stereo unspecified)
14% | -2.6% | · | 9% | COc1ccc(NC(=O)COC(=O)CCCC2=NS(=O)(=O)c3ccccc3N2)cc1
9% | -1.3% | 0 | -19% | COC(CNC(=O)c1ccc(Cn2c(=S)[nH]c3cc4c(cc3c2=O)OCO4)cc1)OC
-6% | -1.3% | -1 | -8% | CNCCC1Sc2ccccc2Oc2ccccc21 (stereo unspecified)
-8% | -3.8% | 0 | 3% | COc1ccc(NC(=O)CSc2nnc3n2CCCCC3)cc1
6% | 2.3% | 0 | 0% | COCCN(Cc1cc2cc(C)ccc2n2nnnc12)C(=S)Nc1cccc(C)c1
-5% | -0.3% | · | · | CC(C)Cn1c(N)c(C(=O)COC(=O)[C@H](C)NC(=O)c2ccccc2Cl)c(=O)n(C)c1=O
-6% | ? | · | -3% | CSc1ccc(/C=C2\C(=N)N3N=C(CC(=O)N4CCCCC4)SC3=NC2=O)cc1
-11% | 0.4% | -8 | 4% | CCCOc1ccc(S(=O)(=O)NNC(=O)c2cc3ccccc3o2)cc1
-2% | 3.3% | · | 1% | COC(=O)C1=C(CS(=O)(=O)c2ccc(C)cc2)NC(=O)NC1c1ccc(OC)c(OC)c1 (stereo unspecified)
11% | -2.0% | · | · | Nc1nc(SCc2ccc(Br)cc2)c2ncn(C3OC(CO)C(O)C3O)c2n1 (stereo unspecified)
-22% | ? | 7 | -22% | N#Cc1c(-c2ccco2)cc(C2CC2)nc1N
7% | -2.7% | · | -4% | COc1ccc(C(=O)NCc2cnn(C)c2C)cc1OC1CCN(C(C)C)CC1
5% | -1.4% | 2 | -4% | COCCCNC(=O)c1ccc(N2CCOCC2)c(NS(=O)(=O)c2ccc(OC)cc2)c1
6% | -2.3% | -6 | -16% | Cc1ccc(NC(Cc2cc(C)no2)c2ccccc2)cc1 (stereo unspecified)
-2% | -1.1% | -6 | -4% | Cc1cc(Nc2ccccc2)n(CCOC(=O)COc2ccccc2)n1
-9% | 1.1% | · | -44% | Clc1ccccc1OCCCOc1cccc2cccnc12
2% | -4.8% | 2 | -4% | O=C(O)CN(c1ccc(F)cc1)S(=O)(=O)c1ccc2c(c1)OCCO2
? | ? | -1 | -47% | Cc1cc(N2CCOCC2)ccc1/C=C1\SC(=O)N(C(C)C)C1=O

Pulled by compound from the entries so far, 3 records:
Rango dissoc inh | Rango complex inh | GLA inh pH 4.5 | miR-21 reporter | mol
6% | -2.3% | -6 | -16% | Cc1ccc(NC(Cc2cc(C)no2)c2ccccc2)cc1 (stereo unspecified)
? | ? | -1 | -47% | Cc1cc(N2CCOCC2)ccc1/C=C1\SC(=O)N(C(C)C)C1=O
2% | -4.8% | 2 | -4% | O=C(O)CN(c1ccc(F)cc1)S(=O)(=O)c1ccc2c(c1)OCCO2

These rows are one share of the data. The share of hits here may be higher or lower than overall.
